HPGD block: HPGD (human) dehydrogenase inhibition | P15428 | purified HPGD, NADH fluorescence kinetic, PGE2 substrate | Potency, µM, for the others: top-dose activity change, negative = inhibition, hits mostly inhibitors | actives 4.3% (n = 150,000); active = well fitted inhibition curve with a large enough effect (not every such curve was filed as active); inconclusive = small, poorly fitted or top-dose-only effect, or another doubt; inactive = no such curve, though single readings can be large or run the other way;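 also: top concentration of the series not given in the record; plate controls included wells without enzyme; inactives centre near -10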
Target sequence (P15428 whole entry, looked up): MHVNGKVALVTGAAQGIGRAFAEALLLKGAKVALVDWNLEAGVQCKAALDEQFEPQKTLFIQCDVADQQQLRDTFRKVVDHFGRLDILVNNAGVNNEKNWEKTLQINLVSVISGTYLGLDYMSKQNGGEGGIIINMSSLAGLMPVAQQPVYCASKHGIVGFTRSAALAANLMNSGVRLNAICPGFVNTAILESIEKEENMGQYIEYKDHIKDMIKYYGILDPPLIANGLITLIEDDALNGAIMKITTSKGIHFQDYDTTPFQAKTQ
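NADH formation kinetics: reaction with 30 uM PGE2 and 1 mM NAD+ (final), 20 nM enzyme, Tris-HCl pH 8 with Tween 20, after 15 min compound preincubation at room temperature. Fluorescence change, last versus first of five reads.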
Active calls of the source: *; ? = inconclusive. % is scaled to controls: 0 for no effect and ±100 for the full control effect; potency is read from the fitted curve at half-maximal effect. This is a subset, so the mix of outcomes need not match the whole.

SMILES	HPGD block
COc1cccc(C(=O)Nc2cccc(C(=O)NC3=NN(c4c(Cl)cc(Cl)cc4Cl)C(=O)C3)c2)c1	-25%
CCn1cc(C(=O)NCC2CCCO2)c(=O)c2cc(S(=O)(=O)N3CCCCCC3)ccc21 (centres undefined)	-12%
O=S(=O)(Nc1ccccn1)c1ccc(Cl)cc1	-20%
Cn1c2ccccc2n2c(=O)c(Cl)c(-c3ccccc3)c(C#N)c12	-3%
O=C(CN1CCN(Cc2ccccc2)CC1)NCC1COc2ccccc2O1 (centres undefined)	-7%
COc1cccc(NC(=O)NC2(C(F)(F)F)Oc3ccccc3O2)c1	-27%
Cn1c(=O)[nH]c(=O)c2c1nc(OC(=O)c1ccccc1)n2CC(O)COc1ccccc1 (centres undefined)	-3%
CCOC(=O)c1cc(-c2ccccc2)n(CCC(=O)N2CCN(c3ccc(OC)cc3)CC2)c1C	-9%
CCCCN(C)C(=O)C1CCN(Cc2ccccn2)CC1	-6%
CCCOc1ccc(OCCCCNC(C)CC)cc1 (centres undefined)	-8%
O=C(Nc1ccc2c(c1)oc1ccccc12)N1CCOCC1	-12%
Nc1ccc(C(=O)c2ccccc2C(=O)O)cc1Cl	-3%
Cc1cc(C(=O)CN2CCC(C)CC2)c(C)n1-c1ccc(F)cc1	-5%
CCCCNC(=O)c1onc(CSc2ccccc2F)c1C(=O)O	-18%
CCCCCNC(=O)C1CC=CCC1C(=O)O (centres undefined)	6%
Cc1ccccc1OCc1nc(-c2ccc(NC(=O)c3cccs3)cc2)no1	-21%
CCOC(=O)/C=C1\NC(C)(C)Cc2cc(OC)c(O)cc21	35µM*
CCC(=O)Nc1ccc(Cl)c(NC(=O)c2ccc(Br)o2)c1	-2%
O=C(CN1C(=O)C2CC=C(Cl)CC2C1=O)N1CCOCC1 (centres undefined)	-3%
CC1CCC(C(C)C)C(OC(=O)CSc2nc(N)cc(=O)[nH]2)C1 (centres undefined)	-10%
Cc1cc(C)nc(N2CCN(c3nc(C)cc(C)n3)CC2)n1	-5%
CCN1C(=O)c2cccc3c(S(=O)(=O)Nc4c(C)n(C)n(-c5ccccc5)c4=O)ccc1c23	-10%
COc1ccc(NC(=O)CSc2nnnn2-c2ccc(OC)cc2)cc1	-10%
CCn1c(SCC(=O)N2CCc3ccccc32)nc2c(c1=O)SC(C)C2 (centres undefined)	-6%
COC(=O)[C@H](CC(C)C)NC(=O)Nc1ccc2c(c1)OCCO2	-13%
Later entries.
SMILES	HPGD block
CCN(CCO)C(=O)C(c1ccccc1)c1ccccc1	-2%
Oc1ccc(Nc2ncnc3scc(-c4ccccc4)c23)cc1	-11%
O=C(CCSc1nc(-c2ccco2)cc(C(F)(F)F)n1)N1CCCc2ccccc21	?
C=CCNC(=S)NCCCCC1NC(=S)N(CC=C)C1=O (centres undefined)	-2%
CCN(CC)S(=O)(=O)c1ccc(Cl)c(NC(=O)COc2ccc3c(C)cc(=O)oc3c2)c1	-12%
Nc1nc2n[nH]nc2c(=O)[nH]1	-8%
O=C(COC(=O)CSCC(=O)N1CCCCC1)Nc1ccc(Cl)cc1	-5%
Cc1ccc(C(=O)NCCc2csc(C)n2)cc1	-18%
CC(c1ccccc1)C1CC(=O)N(CC(=O)O)C1=O (centres undefined)	2%
CCCn1cnc2c(N)c(C)c(C)cc21	-4%
O=C1CC(c2ccc(S(=O)(=O)N3CCN(c4ccccc4)CC3)cc2)CN1 (centres undefined)	-6%
CC(C)COn1c(=S)[nH]c2ccccc2c1=O	-11%
COc1ccc(CCN(C)CCN2C(=O)c3ccccc3C2=O)cc1OC	-3%
COc1ccc(NC(=O)C(c2ccc(C)cc2)N(C)C(=O)CNC(C)=O)cc1 (centres undefined)	2%
O=C(CSc1nnc(-c2ccccc2)n1-c1ccccc1)c1cccs1	-23%
O=C1C=C(N(CCO)CCO)C2(CCCCC2)O1	-7%
Cc1cc(C)c(S(C)(=O)=O)c(S(=O)(=O)c2ccc(Cl)cc2)n1	-13%
COc1cc(C2C3=C(CCCC3=O)Nc3[nH]n(-c4ccccc4)c(=O)c32)ccc1O (centres undefined)	-19%
S=C1NC=NC2N=CNC12 (centres undefined)	?
Cc1ccc(S(=O)(=O)n2nc(-c3ccc(Cl)cc3)nc2NCc2ccco2)cc1	-24%
Cc1cc(C(=O)Nc2nc3ccc(S(C)(=O)=O)cc3s2)c(C)o1	-16%
COC(=O)c1cc(C#N)c(NCc2ccccc2)nc1C	?
CCC(C)NC(=O)CSc1nnc(-c2cc(-c3cccs3)nc3ccccc23)o1 (centres undefined)	?
COc1cccc2c1OCC/C2=N\NC(=O)COc1ccccc1C	-9%
O=C(NC1CCCCC1)C(c1ccc2ncccc2c1)N(Cc1ccccc1)C(=O)c1cccs1 (centres undefined)	-5%
Further results:
SMILES	HPGD block
Cc1ccsc1C(=O)N/N=C/c1ccc2c(c1)OCO2	?
CC1CCc2sc3nc(N4CCN(CCO)CC4)n4ncnc4c3c2C1 (centres undefined)	-28%
c1ccc(CCc2nc(-c3ccc(-n4cccc4)cc3)no2)cc1	-14%
CC(C)(C)c1ccc(/C=C/C(=O)Nc2ncccn2)cc1	-18%
CCCN(CCC)C(=O)c1ccc2c(c1)OCO2	25µM*
CCOC(=O)C1CCCN(Cc2nc(N)nc(Nc3ccccc3OC)n2)C1 (centres undefined)	-7%
Clc1ccc(OCc2nc(-c3ccncc3)no2)cc1	-17%
CC(=O)N1CCC2(CC1)CN(Cc1ccccc1)C2	-10%
O=C(c1cc(Br)c(Br)s1)N1CCN(C/C=C/c2ccccc2)CC1	-14%
O=C(c1sc(N2CCOCC2)nc1-c1ccccc1)N1CCCCC1	0%
CCC(C)C(=O)N1c2ccccc2C(=C2SC(C(=O)OC)=C(C(=O)OC)S2)C(=S)C1(C)C (centres undefined)	-18%
CCOC(=O)Cc1csc(SCC(=O)/C(C#N)=C(\C)N)n1	-10%
CCOC(=O)c1ccccc1NC(=O)/C=C/c1cc(OC)c(OC)c(OC)c1	?
O=C(O)C1C2C=CC3(CN(Cc4ccccn4)C(=O)C13)O2 (centres undefined)	-2%
CCN(CC)S(=O)(=O)c1ccc(Cl)c(C(=O)Nc2ccc(Cl)cc2[N+](=O)[O-])c1	-2%
CSCCC(NC(N)=O)C(=O)NCc1cccc(Cl)c1 (centres undefined)	-3%
COc1ccc(OCCC(=O)NCc2ccccc2)cc1	-16%
O=C1CC(c2ccccc2)CN1S(=O)(=O)c1ccccc1 (centres undefined)	-7%
COCCNC(=O)c1c(N)n(CCCn2ccnc2)c2nc3ccccc3nc12	?
CCn1c2ccccc2c2cc(CN3CCN(S(=O)(=O)CC)CC3)ccc21	-11%
O=C(Cn1ncc2c(=O)oc3ccccc3c21)NCCC1=CCCCC1	-4%
CCOC(=O)CC1C(=O)NCCN1C(=O)Nc1ccc(Cl)cc1 (centres undefined)	1%
O=C(C1=C(O)C(=O)N(CCCN2CCOCC2)C1c1ccccn1)c1cc2ccccc2o1 (centres undefined)	-7%
O=C(NNC(=O)c1cccc2ccccc12)c1ccco1	-18%
Cc1cccc(C)c1NC(=O)CC(NCCc1ccccc1)C(=O)O (centres undefined)	-10%
(listing goes on)
SMILES	HPGD block
Cc1ccc(CNC(=O)COc2ccc(C)nc2[N+](=O)[O-])cc1	-15%
CS(=O)(=O)N1CCN(c2ccccc2NC(=O)c2ccc(Cl)cc2)CC1	-25%
CC1CCCCN1C(=O)CSc1nnc(-c2ccco2)n1CC1CCCO1 (centres undefined)	-11%
CC(NC(=O)COc1ccccc1-c1ccccc1)c1ccccc1 (centres undefined)	-7%
Cc1cc(C)nc(SCc2nnc(SCC(=O)Nc3ccccc3C)n2Cc2ccco2)n1	-10%
CCOc1ccccc1NC(=O)Nc1ccc(Cl)cc1	-17%
CC(O)CNC(=O)c1ccc(-c2nn(C)c(=O)c3ccccc23)cc1 (centres undefined)	28µM*
COc1ccc(C(=O)NC(=S)Nc2ccc3oc(=O)ccc3c2)cc1	-11%
CCOC(=O)c1c(C)oc2ccc(O)c(CN(C)C)c12	-2%
Cc1ccc(-n2nnnc2SC(C(=O)c2c[nH]c3ccccc23)c2ccccc2)cc1 (centres undefined)	-14%
CCCC(=O)c1ccc(N2CCN(C(=O)c3ccccc3)CC2)c(F)c1	-22%
COc1cccc(C2C=C(c3cccs3)Nc3ncnn32)c1OC (centres undefined)	-22%
O=C(NCCCc1ccccc1)Nc1cccc(Cl)c1	-13%
CCc1nnc(NC(=O)[C@@H](NC(=O)c2ccc(C(C)(C)C)cc2)C(C)C)s1	-19%
CCN(CC)CCNC(=O)C(C)c1nn(CC)c(=O)c2ccccc12 (centres undefined)	-10%
Cc1cnc(NC(=O)CCCc2nc3ccccc3s2)s1	-22%
Cc1cccc(OCC(O)Cn2c(NCc3cccnc3)nc3c2c(=O)[nH]c(=O)n3C)c1 (centres undefined)	-7%
COC(=O)c1sc(=S)n(-c2ccccc2OC)c1N	14µM*
CC1(C)CC(=O)C(/C=N/n2cnc3ccccc3c2=O)=C(O)C1	-3%
COc1ccc(S(=O)(=O)N(C)C2CCS(=O)(=O)C2)cc1OC (centres undefined)	-7%
C=CCNC(=O)N1CCc2nc(CCCC)c3c(c2C1)CO[C@@H](C)C3	1%
Cc1ccc(S(=O)(=O)NNc2nc3ccccc3nc2C(F)(F)F)cc1	3.2µM*
COCC(C)n1c(C)cc(C(=O)COC(=O)c2ccc3ncsc3c2)c1C (centres undefined)	-4%
O=C(CCS(=O)(=O)c1cccc2nsnc12)N1CCN(C(=O)c2ccco2)CC1	-8%
O=C(O)CCC(=O)Nc1ccccc1C(=O)NCc1ccco1	-15%
Carrying on.
SMILES	HPGD block
Cc1ccsc1C(=O)Nc1cccc(S(=O)(=O)N(C)C)c1	-6%
Cc1ccccc1C(=O)N1CCC(C(=O)Nc2ccc(S(=O)(=O)N3CCCC3)cc2)CC1	-16%
Cc1cc2cc3c(cc2nc1SCC(=O)N1CCN(C(=O)c2ccco2)CC1)OCO3	-30%
COc1ccc(OCC(=O)NC(=S)Nc2ccc3c4c(cccc24)CC3)cc1	?
O=C(N/N=C/c1c[nH]c2ccc(Br)cc12)c1ccncc1	-9%
CCOc1cc(C(=O)NCCN2C(=O)S/C(=C\c3cccnc3)C2=O)cc(OCC)c1OCC	-8%
CCCC(=O)Oc1ccc(N(C(=O)CCC)S(=O)(=O)c2cccc([N+](=O)[O-])c2)cc1	-2%
COc1cc(C(=O)NC(=S)Nc2ccc([N+](=O)[O-])cc2)cc(OC)c1OC	-14%
Cc1ccc2c(c1)C(=O)C(=O)N2CC(=O)OC(C)C	1%
Cc1ccc(CN2C(=O)C[C@@H](NS(=O)(=O)c3ccc4ccccc4c3)C/C=C\C2c2ccc(C)cc2)cc1 (some centres undefined)	-7%
Cn1c(=O)oc2cc(S(=O)(=O)NCCC(=O)Nc3ccc4c(c3)OCCO4)ccc21	4%
CCN(Cc1ccccc1)C(c1ccccn1)c1nnnn1C1CCCCC1 (centres undefined)	-6%
CCOC(=O)c1c(NC(=O)CSc2nnc(CNc3ccc(Cl)cc3)o2)sc(C)c1C	-4%
COc1ccccc1CNc1cc(-c2cccc(NS(C)(=O)=O)c2)ncn1	-23%
CN(C)S(=O)(=O)Nc1ccc(Br)cc1F	-15%
COc1cc2c(O)c3c(c(-c4ccc5c(c4)OCO5)c2cc1OC)C(=O)OC3	?
Cc1ccccc1Nc1oc(-c2ccccc2)nc1-c1cccc2ccccc12	-2%
O=C(c1cccs1)N1N=C(c2ccccc2)CC1c1ccccc1 (centres undefined)	?
COc1cc2c(cc1OC)C(C)N(C(=O)Cn1ncc3c1-c1cc(C)ccc1OC3)CC2 (centres undefined)	1%
Cc1ccc2nc(SCCC#N)nc(C)c2c1	-16%
Cn1c(=O)n(CC(=O)O)c(=O)c2c1nc1n2CCS1	?
c1ccc(CN2CCN(CCN3CCn4c3nc3ccccc34)CC2)cc1	-11%
Cc1ccc(SCc2cc(=O)[nH]c(N3CCOCC3)n2)cc1	-17%
O=C(CN1CCN(c2ccccc2)CC1)N1N=CCC1c1ccccc1 (centres undefined)	-9%
COc1c(C)cccc1C(=O)Nc1ccc(CN2CCOCC2)cc1	-5%
Cc1ccc(/C=N/N2CCN(Cc3ccccc3)CC2)s1	-26%
CCCCNC(=S)N(C)/N=C/c1ccc(F)cc1	28µM*
C=CCn1c(SCn2nnc3ccccc3c2=O)nnc1-c1ccc(Br)cc1	-2%
CC1(C)CC(NC(=O)CCc2ccccc2)CC(C)(C)N1	-3%

Of the compounds above, these have two or more sulfur atoms.
SMILES	HPGD block
CCn1c(SCC(=O)N2CCc3ccccc32)nc2c(c1=O)SC(C)C2 (centres undefined)	-6%
C=CCNC(=S)NCCCCC1NC(=S)N(CC=C)C1=O (centres undefined)	-2%
O=C(CSc1nnc(-c2ccccc2)n1-c1ccccc1)c1cccs1	-23%
Cc1cc(C)c(S(C)(=O)=O)c(S(=O)(=O)c2ccc(Cl)cc2)n1	-13%
Cc1cc(C(=O)Nc2nc3ccc(S(C)(=O)=O)cc3s2)c(C)o1	-16%
CCC(C)NC(=O)CSc1nnc(-c2cc(-c3cccs3)nc3ccccc23)o1 (centres undefined)	?
CCC(C)C(=O)N1c2ccccc2C(=C2SC(C(=O)OC)=C(C(=O)OC)S2)C(=S)C1(C)C (centres undefined)	-18%
CCOC(=O)Cc1csc(SCC(=O)/C(C#N)=C(\C)N)n1	-10%
Cc1cc(C)nc(SCc2nnc(SCC(=O)Nc3ccccc3C)n2Cc2ccco2)n1	-10%
Cc1cnc(NC(=O)CCCc2nc3ccccc3s2)s1	-22%
COC(=O)c1sc(=S)n(-c2ccccc2OC)c1N	14µM*
COc1ccc(S(=O)(=O)N(C)C2CCS(=O)(=O)C2)cc1OC (centres undefined)	-7%
O=C(CCS(=O)(=O)c1cccc2nsnc12)N1CCN(C(=O)c2ccco2)CC1	-8%
Cc1ccsc1C(=O)Nc1cccc(S(=O)(=O)N(C)C)c1	-6%
CCOC(=O)c1c(NC(=O)CSc2nnc(CNc3ccc(Cl)cc3)o2)sc(C)c1C	-4%

Source: PubChem BioAssay
